HTT prom inh: inhibitors of huntingtin promoter activity. Potency, µM (series often up to 57.5 µM), for inactives: top-dose activity change, negative = inhibition, usual class: inhibitors. 48,000 tested, 0.93% active. HEK293 HTT promoter firefly luciferase reporter (activity 0% = vehicle and -100% = no light), 24 h; active = well fitted inhibition curve with a large enough effect; inconclusive = small, poorly fitted or top-dose-only effect; inactive = no such curve, though single readings can be large or run the other way; also: nearly all actives have a fitted effect of over 50% in size
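Firefly luciferase signal from promoter-reporter HEK293 cells was scaled between vehicle (0%) and zero RLU (-100%). Compounds were tested at final concentrations of up to 57.5 uM over 24 h at 37 degrees C. PTC124 at 50 uM final served as control inhibitor.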
PMP22 txn: modulators of PMP22 gene transcription in S16 Schwann cells | S16 Pmp22-F2sN Schwann cells (luciferase reporters placed in the Pmp22 gene), FLuc/NLuc coincidence luminescence, 24 h | Potency, µM (top dose mostly 57.5 µM), without a hit: at the top dose activity change, negative = inhibition, usual class: inhibitors | 43,000 tested, 2% active; active = clear falling dose curves in both reporters; inconclusive = both reporters move, but less clearly or upward; inactive = either reporter flat; the % is the NLuc reporter signal; also: % is scaled to controls: 0 for no effect and ±100 for the full control effect; some results filed as inactive show a strong effect at the top dose
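Schwann cells carrying the coincidence reporter were exposed to library compounds for 24 h at 37C, then lysed and read for FLuc and, after quenching, NLuc luminescence on a CCD imager.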
* = called active by the depositor; u = inconclusive; x = not tested or not shown; & = joins results of further samples; [ ] = dose if it differs, or a comment. Potency is read from the fitted curve at half-maximal effect.

The line under a structure holds: PMP22 txn	HTT prom inh
> COc1cccc(-c2[nH]c3c(c2-c2c(-n4cccc4)n(C)c(=O)[nH]c2=O)c(=O)[nH]c(=O)n3C)c1
    -29%	-1%
> Cc1ccc(C(C)C)c(OCc2ccc(C(=O)Nc3ccc(S(N)(=O)=O)cc3C)o2)c1
    -26%	-34%
> CCCNC(=O)CCNS(=O)(=O)c1ccc2c(c1)c(=O)n(C)c(=O)n2C
    -6%	-10%
> CCC(=O)N1CCc2cc(Br)cc(S(=O)(=O)N3CCCC(C(=O)Nc4cccc(Cl)c4C)C3)c21 (centres undefined)
    u	-14%
> CCOC(=O)C(=O)c1csc(NC=O)n1
    x	14%
> CC(=O)c1ccc(NC(=O)CSc2nc(-c3cccc(F)c3)nc3c2c(=O)n(C)c(=O)n3C)cc1
    -10%	-13%
> Cc1cc(C)c(NC(=O)c2cc3sc(Cl)cc3n2C)c(C)c1
    -3%	-17%
> CCSc1oc(-c2ccc(F)cc2)nc1S(=O)(=O)c1ccc(C)cc1
    u	u
> O=C(Nc1ccc([N+](=O)[O-])cc1Cl)c1cc(Cl)ccc1O
    x	u
> CCc1cccc(NC(=O)CCC(=O)N2CCSc3ccccc32)c1
    4%	-23%
> O=C(NCc1ccccc1)C1CCN(S(=O)(=O)c2ccc3c(c2)CCCN3C(=O)C2CCC2)CC1
    -4%	u
> O=C(Nc1ccc(Cl)c(Cl)c1)N1CCC(c2ccccc2)C1 (centres undefined)
    -2%	50%[activator]
> O=C(CN1C(=O)c2cccc3cccc1c23)Nc1cccc(F)c1
    -9%	-16%
> CCN1CCN(c2cc(C)c3cc(NC(=O)c4cc(Br)ccc4Cl)ccc3n2)CC1
    u	-29%
> COc1ccc2cc(S(=O)(=O)c3ccccc3F)c(=O)oc2c1
    -15%	-29%
> COc1ccc2nc(N(Cc3cccnc3)C(=O)C3COc4ccccc4O3)sc2c1 (centres undefined)
    -13%	6%
> O=C(CSc1nc2ccccc2nc1Cc1ccccc1)Nc1ccc2c(c1)OCO2
    -33%	-6%
> Cc1cc(=O)n2[nH]c(NCc3ccc(F)cc3)nc2n1
    0%	-29%
> CCOC(=O)c1c(C)[nH]c(CCC(=O)Nc2ccccc2C(=O)OC)c1C
    -15%	2%
> COc1ccccc1C(=O)Nc1ccc(C(=O)OCc2cc(=O)n3c4c(sc3n2)CCCC4)cc1
    -5%	-19%
> Cc1ccc(C)n1-c1nnc(N2CCCC(C(=O)NCc3ccc(F)cc3)C2)s1 (centres undefined)
    u	-15%
> CCc1ccc(NC(=O)Cn2c(=O)oc3cc(S(=O)(=O)NCc4ccccc4)ccc32)cc1
    -28%	u
> Cc1nc2nc(SCC(=O)NCCc3ccc(Cl)cc3)nn2c(C)c1Cc1c(F)cccc1Cl
    -24%	-9%
> COc1cccc(CNc2ncnc3onc(-c4ccc(F)cc4)c23)c1
    -5%	-19%
> Clc1ccccc1-c1nnc(-c2ccccc2CNc2ccc(Br)cc2)o1
    u	28%
> CC(C)CCNC(=O)C1CCN(C(=O)c2cc3sccc3n2Cc2ccc(Cl)cc2)CC1
    u	25µM*
> COc1ccc(-c2c(C)c3ccc(O)c(CN4CCN(CCO)CC4)c3oc2=O)cc1OC
    u	-13%
> CCc1nn(CC(=O)N2CCN(c3ccc(OC)cc3)CC2)c(=O)c2cc3sccc3n12
    u	-13%
> O=C(NCc1ccccc1Cl)c1cc2c(s1)-c1ccccc1SC2
    -30%	-3%
> Cc1ccc(C)c(S(=O)(=O)NCC(c2ccc(N(C)C)cc2)N2CCOCC2)c1 (centres undefined)
    -12%	-19%
> Cc1c2cnn(-c3ccccc3)c(=O)c2c(C)n1C(C)C(=O)NCc1cccc(Br)c1 (centres undefined)
    u	u
> CCN(CC)CCCNC(=O)c1c(C)oc2ncn(CC(C)C)c(=O)c12
    6%	-22%
> COc1ccccc1Cc1nc2ccccc2nc1SCC(=O)NCCc1ccccc1
    -25%	-12%
> CCc1ccc(NC(=O)Cn2c(=O)n(CCCC(=O)NCCc3ccc(OC)c(OC)c3)c(=O)c3ccccc32)cc1
    0%	3%
> CCc1ccc(-c2nc3c(c(SCc4ccc(F)cc4)n2)Cc2c(CO)cnc(C)c2O3)cc1
    u	-18%
> O=c1c(N2CCc3ccccc3C2)csc2ccc(F)cc12
    u	21%
> O=C(NCCc1ccc(Cl)cc1)c1ccc2nc(CCc3ccccc3)oc2c1
    -9%	17%
> O=C(CSc1nc2ccccc2nc1Cc1ccccc1)N1CCCc2ccccc21
    u	-24%
> Cc1ccccc1NC(=O)CSc1ncc2c(n1)-c1ccccc1N(C)S2(=O)=O
    11%	-34%
> Nc1nc(Cl)nc2c1ncn2[C@@H]1O[C@H](CO)[C@@H](O)[C@@H]1F
    x	u
> CC(=O)C1=C(c2ccc(Cl)c(Cl)c2)N(C(C)=O)n2c(nnc2C2CCCCC2)S1
    4%	-6%
> CC(C)Oc1ccc(C(=O)N[C@H](CNC(=O)CN(C)C)Cc2ccc(-c3cn4cccc([C@H](C)O)c4n3)cc2)cc1Cl
    x	-19%
> CC1CCN(c2oc(-c3ccc(COc4ccc(Cl)cc4)o3)nc2C#N)CC1
    u	u
> CCOc1ccc(CNCc2c(C(=O)O)n(Cc3ccccc3C)c3cc(OC)ccc23)cc1OC
    u	-15%
> Cc1ccccc1CNC(=O)C(C)n1nc(C)n2c(cc3occc32)c1=O (centres undefined)
    15%	-4%
> COCCNC(=O)C1CCN(C(=O)c2cc3sccc3n2Cc2ccc(Cl)cc2)CC1
    10µM*	u
> COc1ccc(-n2c(-c3ccco3)nc3c(cnn3-c3ccccc3Cl)c2=O)cc1
    u	u
> CC(C)[C@H](N)C(=O)OCCOCn1cnc2c(=O)[nH]c(N)nc21
    x	-6%&4%
> Cc1ccccc1OCC(=O)Nc1ccc2nc(SCC(=O)N(C)c3ccccc3)sc2c1
    u	u
> Cc1ccc(NC(=O)Cn2c(-c3nonc3N)nc3ccccc32)cc1Cl
    11%	-2%
> COc1ccc2c(c1)CC(C(=O)Nc1cccc(C)c1C)CO2 (centres undefined)
    -7%	-19%
> CCC(Sc1nc2ccncc2[nH]1)C(=O)Nc1ccc(F)cc1 (centres undefined)
    17%	-34%
> CCOc1ccc(OCc2ccc(C(=O)Nc3cc(OC)c(OC)c(OC)c3)o2)cc1
    6%	-14%
> CCCCCSc1nnc(-c2ccc(Br)cc2)o1
    -10%	41%[activator]
> CCOC(=O)N1CCC2(CC1)OC(=O)C(C)=C2C(=O)NCc1cccc(OC)c1
    -4%	-4%
> CNC(=O)CN1C(=O)COc2ccc(S(=O)(=O)N3CCCCCC3)cc21
    -24%	1%
> CCc1ccc(NC(=O)Cn2c(=O)n(CCCCC(=O)NCc3ccccc3Cl)c(=O)c3ccccc32)cc1
    u	0%
> COc1ccccc1NC(=O)Cn1c(=O)n(Cc2cccs2)c(=O)c2cccnc21
    4%	u
> Cc1ccc(NC(=O)C2CCCN(S(=O)(=O)c3cccc4cccnc34)C2)cc1 (centres undefined)
    0%	u
> CCOc1ccc(CCNC(=O)c2cnc3sc(N4CCCCCC4)nn3c2=O)cc1
    u	0%

Further structures
The line under a structure holds: PMP22 txn	HTT prom inh
> CCN(CC)CCCNc1oc(/C=C/c2ccc(OC)c(OC)c2)nc1C#N
    -1%	-17%
> CCOC(=O)c1ccccc1NC(=O)CSc1nnc(CC)n2c1cc1occc12
    u	-8%
> COc1cccc(NC(=O)CN2C(=O)c3cccc4cccc2c34)c1
    -1%	u
> COc1ccccc1-c1nc(S(=O)(=O)c2ccc(Cl)cc2)c(N2CCCCCC2)o1
    u	u
> CC(=O)Nc1ccc(NC(=O)c2c(-c3ccccc3)noc2C)cc1
    8%	-1%
> CCc1ccc(NC(=O)CSc2c(C)cnc3c2c(=O)n(C)c(=O)n3C)cc1
    u	-17%
> COc1cccc(C(=O)Nc2cccc(OCc3cc(=O)n4c5c(sc4n3)CCCC5)c2)c1
    -4%	7%
> COc1ccc(-c2nc(SCC(=O)N3CCC(C)CC3)n[nH]2)cc1
    -8%	-10%
> COc1ccc(NC(=O)Cn2ncc3c([nH]c4ccccc43)c2=O)cc1Cl
    14%	5%
> O=C(NCc1ccccc1Br)c1ccc(-n2cnc3cccnc32)cc1
    -16%	-23%
> COc1cccc(NC(=O)C2CCCN(c3ncnc4onc(C)c34)C2)c1 (centres undefined)
    u	u
> Cc1ccc(S(=O)(=O)NCCc2nnc3ccc(SCC(=O)Nc4ccc(F)cc4F)nn23)cc1
    -5%	1%
> CC(Oc1ccccc1F)C(=O)N1CCC(c2nc3ccccc3o2)CC1 (centres undefined)
    -16%	u
> CCOc1ccccc1C(=O)Nc1cccc2ccc(C)nc12
    -34%	u
> COc1ccc2c(CNCC(C)c3ccccc3)c(C(=O)O)n(Cc3ccc(F)cc3Cl)c2c1 (centres undefined)
    -25%	-6%
> COc1ccc(Cl)cc1NC(=O)Cn1ccn(Cc2ccc(C)cc2)c(=O)c1=O
    u	u
> CCOc1ccc(NC(=O)N2CCN(C(=O)c3nsc4ccccc34)CC2)cc1
    -5%	-14%
> Cc1cccc(N2CCN(C(=O)C3CCN(C(=O)c4cc5sccc5n4C)CC3)CC2C)c1 (centres undefined)
    u	22µM*
> Cc1ccccc1NC(=O)C1CCN(S(=O)(=O)c2ccccc2)CC1
    -3%	-14%
> CCOc1ccc(S(=O)(=O)Nc2cccc(OC)c2)c2cccnc12
    -26%	-18%
> Cn1c(SCC(=O)N2CCCc3ccccc32)ncc(C(=O)Nc2ccc(F)cc2)c1=O
    u	-5%
> Cc1ccc(CCNC(=O)c2cc(Nc3ccc(C)c(C)c3)nc3ccccc23)cc1
    2%	-13%
> Cc1ccccc1NC(=O)c1c(NC(=O)c2ccco2)sc2c1CCC(C(C)(C)C)C2 (centres undefined)
    u	-15%
> COc1ccc(S(=O)(=O)Nc2cc(-c3cn4cccc(C)c4n3)ccc2C)cc1C
    u	u
> CC1CCc2c(sc3nnn(Cc4ccccc4Cl)c(=O)c23)C1 (centres undefined)
    -13%	-17%
> Cc1ccc(NC(=O)Nc2ccc3c(c2)N(C)C(=O)c2ccccc2S3)c(C)c1
    -6%	5%
> CCOc1ccccc1N=Nc1c(C)[nH]n(-c2nc(-c3ccccc3)cs2)c1=O
    x	-2%
> CCOC(=O)c1c(N)n(-c2ccc(CC)cc2)c2nc3ccccc3nc12
    u	-15%
> Cc1c(N(C)C)c(=O)n(-c2ccccc2)n1C
    x	20%
> Cc1ccccc1CN1C(=O)c2ccccc2S(=O)c2ccc(C(=O)NCc3ccc(Cl)cc3)cc21 (centres undefined)
    -29%	-27%

As a working copy, part of the list above:
The line under a structure holds: PMP22 txn	HTT prom inh
> COc1ccccc1-c1nc(S(=O)(=O)c2ccc(Cl)cc2)c(N2CCCCCC2)o1
    u	u
> CC(=O)Nc1ccc(NC(=O)c2c(-c3ccccc3)noc2C)cc1
    8%	-1%
> CCc1ccc(NC(=O)CSc2c(C)cnc3c2c(=O)n(C)c(=O)n3C)cc1
    u	-17%
> COc1cccc(C(=O)Nc2cccc(OCc3cc(=O)n4c5c(sc4n3)CCCC5)c2)c1
    -4%	7%

Entries listed above that bear a hit mark in HTT prom inh.
SMILES	HTT prom inh
CC(C)CCNC(=O)C1CCN(C(=O)c2cc3sccc3n2Cc2ccc(Cl)cc2)CC1	25µM*
Cc1cccc(N2CCN(C(=O)C3CCN(C(=O)c4cc5sccc5n4C)CC3)CC2C)c1 (centres undefined)	22µM*

(listing goes on)
The line under a structure holds: PMP22 txn	HTT prom inh
> CN(Cc1ccccc1)C(=O)c1ccc2c(c1)N(Cc1ccccc1F)C(=O)c1ccccc1S2(=O)=O
    -20%	u
> Cc1ccc(-c2c3c(=O)n(C)c(=O)n(C)c3c3c(-c4cccc(C)c4)nc4ccccc4n23)cc1
    0%	-10%[11.5 µM]
> Clc1cccc(N2CCN(c3ncnc4c3nc3n4CCCCC3)CC2)c1
    20µM*	10µM*
> O=c1oc2ccc(Br)cc2cc1-c1csc(-c2ccccc2)n1
    3%	8%
> COc1ccc(-c2cccc(NS(=O)(=O)c3cccs3)c2)nn1
    8%	-15%
> CCc1ccc(NCc2cc3cc4c(cc3n(CC(=O)Nc3cccc(OC)c3)c2=O)OCO4)cc1
    u	-21%
> COc1ccc(-n2c(=O)c3c4c(sc3n(Cc3cc(=O)n5c(C)cccc5n3)c2=O)CCC4)c(OC)c1
    u	-5%
> CCC(=O)N1c2ccccc2CC1C(=O)NCCc1ccccc1 (centres undefined)
    -16%	-25%
> Cc1cccc(N2CCN(C(=O)c3cnn(-c4cccc(Cl)c4C)c3C3CCNCC3)CC2)c1C
    u	-13%
> CCC(C)c1ccc(OCC(=O)Nc2cccc(-c3nc4ncccc4o3)c2)cc1 (centres undefined)
    u	16%
> Cc1c2cnn(CC(=O)N3CCN(c4ccc(F)cc4)CC3)c(=O)c2c(C)n1Cc1ccccc1F
    -18%	u
> O=C(Nc1ccc(F)cc1F)c1ccc2c(O)c(S(=O)(=O)c3ccc(Cl)cc3)c(=O)[nH]c2c1
    -15%	-4%
> Cc1ccc(-c2nc3n(n2)C(=O)CC(c2ccc(Cl)cc2)S3)cc1 (centres undefined)
    0%	4%

Bioassay records deposited in PubChem BioAssay by National Center for Advancing Translational Sciences (NCATS).
